# Calb FLC: affects C. albicans growth with fluconazole | C. albicans CaCi-2 (fluconazole-resistant clinical isolate) + fluconazole, Alamar Blue growth, 48 h | growth inhibition, % (concentration not given with the values) | hit rate 0.57% among 300,000;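 active = most replicates above 75%; inconclusive = exactly half above 75%; inactive = most below 75%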;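 also: all wells also contain fluconazole at 8 µg/ml as a sub-toxic cotreatment; 0% = median of DMSO wells and 100% = median of geldanamycin control wells; wells of about 8 µL received 7.5 nL stock; the first replicate is given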
# ALR H2O2 inh: inhibitors of human sulfhydryl oxidase ALR; hit rate 3.8% among 290,000; purified ALR, DTT oxidation, H2O2 HRP-luminol luminescence; inhibition, % (concentration not given with the values); P55789;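 active = mean and each replicate at 75% or more; inconclusive = only one of the two met; inactive = neither met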;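 also: stock transfer was 7.5 nL into about 7.5 µL; 0% = neutral wells and 100% = wells with inactivated enzyme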
# Beta cell apopt: beta cell apoptosis inhibition; AID 435005; hit rate 0.8% among 300,000; INS-1E cytokine-induced death, ATP luminescence, 48 h; percent of positive-control rescue, neutral wells zero; protection from apoptosis, % (test concentration not listed);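 active = all replicates at 75% or more, or half of them and the mean; inconclusive = half reach 75% but not the mean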;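 also: 0% = cytokine-treated negative control wells and 100% = positive control rescue; higher means more ATP so stronger rescue from cytokine killing; wells of about 40 µL received 100 nL stock; the first replicate is given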
# rRNA inh HTS: inhibitors of bacterial rRNA selective over humanized ribosomes. GFP signal change (wild-type ribosome), % (no concentration beside the values). hit rate 1.6% among 350,000. E. coli WT GFP vs humanized-ribosome RFP mutants, fluorescence, 24 h; hits give low values; DMSO median 0, no signal -100. AID 720706;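 active = significant combined selectivity score with lowered wild-type GFP, culture density cut under 30%, mutant RFP and density less affected; inactive = any of these conditions unmet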; also: one replicate is shown; some compounds called inactive have numbers as strong as hits
# T cruzi repl: T. cruzi replication inhibition. T. cruzi beta-gal in NIH3T3, luminescence, 90 h. hit rate 1.4% among 300,000. inhibition, % (test concentration not listed);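 active = mean inhibition across valid replicates above about 55%, limit read from the data; inconclusive = mean below that limit but half or more replicates reach it; inactive = mean below it, under half of replicates reach it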;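 also: signal also drops with host cell toxicity which is not excluded here; 0% = plate median of DMSO wells and 100% = zero luminescence signal; higher percent means less beta-gal luminescence so fewer parasites; stock transfer was 50 nL into about 50 µL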
# Beta2AR agonist: human beta-2 adrenergic receptor agonism by FAP. P07550. Am2.2-beta2AR cells, FAP receptor internalization, flow cytometry; reference of the scale not given here. response, % (test concentration not listed). hit rate 0.43% among 340,000;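 active = response above a set limit, near 3 SD of response in nonfluorescent compounds, cut at about 42% in these data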;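 also: stock transfer was 100 nL into about 11 µL; a reference agonist was the positive control; negative values mostly stem from fluorescent compounds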
# A1 inh: inhibitors of the anti-apoptotic protein A1, read as caspase activation. MEF A1-2A-BIM cells, Caspase-Glo 3/7 luminescence, 3 h; percent of clofoctol response, vehicle zero. caspase activation, % (test concentration not listed). hit rate 0.066% among 330,000;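 active = over half of replicate activation scores above 10%, or exactly half above 10 with the replicate mean above 10; inconclusive = replicate mean below 10 yet half the replicates above 10; inactive = over half of replicates below 10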;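 also: wells of about 30 µL received 50 nL stock; many hits fall short of the cut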
# LANA-H2B inh: blocks KSHV LANA binding to histone H2A/H2B; inhibition, % (concentration not given with the values); Q9QR71; cell-free LANA-H2A/H2B peptide, fluorescence polarization; hit rate 0.6% among 320,000; in the data active = inhibition mostly above about 10%, no sharp cut-off; inactive = mostly below about 6.7%;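 also: stock transfer was 7.5 nL into about 10 µL; 0% = median of vehicle wells and 100% = median of positive control wells; one replicate is shown; the record names a cut of 25% in any replicate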
# Target sequence (Q9QR71 whole entry, looked up): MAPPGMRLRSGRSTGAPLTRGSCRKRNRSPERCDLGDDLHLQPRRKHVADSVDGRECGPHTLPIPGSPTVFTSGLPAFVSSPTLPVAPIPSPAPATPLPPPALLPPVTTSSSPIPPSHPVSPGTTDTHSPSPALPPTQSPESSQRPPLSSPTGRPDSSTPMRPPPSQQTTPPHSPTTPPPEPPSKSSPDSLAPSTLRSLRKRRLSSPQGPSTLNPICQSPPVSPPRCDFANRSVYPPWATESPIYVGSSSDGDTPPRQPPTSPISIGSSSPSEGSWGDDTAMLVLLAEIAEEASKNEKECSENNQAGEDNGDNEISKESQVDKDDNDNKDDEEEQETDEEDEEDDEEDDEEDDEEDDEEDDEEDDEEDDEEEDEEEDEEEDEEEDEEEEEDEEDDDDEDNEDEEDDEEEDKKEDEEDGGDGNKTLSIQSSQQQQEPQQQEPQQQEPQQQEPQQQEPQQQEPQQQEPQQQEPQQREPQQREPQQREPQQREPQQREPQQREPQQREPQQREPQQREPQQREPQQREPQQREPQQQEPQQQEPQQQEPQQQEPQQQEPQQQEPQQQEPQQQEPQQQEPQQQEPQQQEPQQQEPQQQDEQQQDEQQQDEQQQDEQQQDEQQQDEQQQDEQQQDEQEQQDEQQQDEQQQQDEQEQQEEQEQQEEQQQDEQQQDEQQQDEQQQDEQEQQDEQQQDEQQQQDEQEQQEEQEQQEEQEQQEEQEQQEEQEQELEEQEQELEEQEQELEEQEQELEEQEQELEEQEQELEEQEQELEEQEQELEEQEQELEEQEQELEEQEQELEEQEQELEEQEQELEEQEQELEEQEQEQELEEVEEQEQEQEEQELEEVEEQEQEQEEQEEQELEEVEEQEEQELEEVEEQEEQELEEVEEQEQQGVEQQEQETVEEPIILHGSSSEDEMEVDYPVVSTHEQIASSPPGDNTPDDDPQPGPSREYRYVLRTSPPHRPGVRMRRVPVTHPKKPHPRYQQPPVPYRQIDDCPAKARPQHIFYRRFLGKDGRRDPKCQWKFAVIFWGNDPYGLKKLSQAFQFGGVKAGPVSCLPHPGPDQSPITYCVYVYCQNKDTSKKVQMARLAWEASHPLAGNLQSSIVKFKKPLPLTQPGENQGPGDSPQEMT
# rRNA inh HTS OD600: second read-out of rRNA inh HTS, no call of its own (marks repeat the call); OD600 change, %; measured here: OD600 growth;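 optical density of the mix in the first replicate; 0 = DMSO median and -100 = no signal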
# rRNA inh HTS RFP: also measured in rRNA inh HTS; calls as there; RFP signal change, %; measured here: RFP humanized mutant strains;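 first replicate; 0 = DMSO median and -100 = no signal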
# Numbers without * were called inactive; ? = inconclusive; / = not tested or not shown. This is a subset; the hit share may differ from the screen's.
Structure,Calb FLC,ALR H2O2 inh,Beta cell apopt,rRNA inh HTS,rRNA inh HTS OD600,rRNA inh HTS RFP,T cruzi repl,Beta2AR agonist,A1 inh,LANA-H2B inh
COc1ccc2c(C)cc(SCC(=O)N(C)C3CCS(=O)(=O)C3)nc2c1 (centres undefined),8,-7,-8,0,-12,1.5,9,-26,-0.3,-4.1
COC(=O)C(NNc1ccc(F)cc1)(NC(=O)c1ccccc1)C(F)(F)F (centres undefined),/,0,-5,/,/,/,/,0,0.1,-43
CCOc1cc(N2CCOCC2)c(OCC)cc1NC(=O)c1ccc(NC(C)=O)cc1,-5,-5,-3,13,0,2.3,25,0,-0.2,5.4
O=C(c1cc(-c2ccc(O)cc2)on1)N1CCOCC1,-14,99*,6,/,/,/,-4,-4,-1.4,-2.4
CSCCC(NC(N)=O)C(=O)Nc1ccc(C)cc1 (centres undefined),-21,-3,-6,18,13,-0.6,-22,2,0.0,-8.0
CSc1sc(C(=O)O)c2c1C(=O)CCC2,2,-4,0,/,/,/,2,-5,0.2,1.7
CC(C)c1ccc(C(=O)NC2=NCCS2)cc1,-5,-1,0,/,/,/,-10,2,-3.2,3.7
Cc1ccc(C(=O)NNC(=O)c2ccc(S(=O)(=O)N3CCCCC3)cc2)cc1,/,-1,-6,/,/,/,/,-1,-1.2,5.7
N#CCCN1CCN(S(=O)(=O)c2ccc(C3CCCCC3)cc2)CC1,/,/,2,4,7,-1.1,/,6,0.0,-3.9
CCC(C)NC(=O)C1CCN(S(=O)(=O)c2cc([N+](=O)[O-])ccc2Cl)CC1 (centres undefined),2,-14,6,5,5,2.7,-7,0,-0.2,3.2
O=C1COc2ccccc2N1Cc1c(F)cccc1Cl,-6,-2,-3,-13,-23,0.1,8,-3,0.8,-0.7
O=C(CCN1CCCCCC1)Nc1ccc(F)cc1,23,-9,-5,/,/,/,-36,-1,0.8,4.6
CC(C)C(=O)NC(=S)Nc1ccccc1N1CCN(C(=O)c2ccc(Cl)cc2)CC1,6,-6,27,-5,2,0.9,64*,11,-0.1,1.7
Cc1ccc(/C=C/C(=O)Nc2nc3ccccc3[nH]2)cc1,-2,-4,8,/,/,/,-12,-1,-9.0,-4.3
CCc1nc(OCCN(C)C)c2oc3ccccc3c2n1,0,11,0,/,/,/,24,4,-0.5,3.0
Cc1ccc(C2(C)NC(=O)N(CC(=O)N3CCc4ccccc43)C2=O)cc1 (centres undefined),/,0,3,11,20,10,/,-1,-1.0,-2.7
O=C(c1nc(-c2ccccc2)n(-c2ccccc2)n1)N1CCCCCC1,-8,0,8,/,/,/,12,-5,0.5,0.0
CCC(C)NC(=O)c1cn(CC)c2ccc(S(=O)(=O)N3CCCCC3)cc2c1=O (centres undefined),-19,1,1,0,7,-0.7,4,-15,0.7,0.4
CCOc1ccc(S(=O)(=O)N2CCC(C(=O)N3CCN(C)CC3)CC2)cc1Cl,-16,7,/,0,5,3.0,20,-27,-0.5,2.8
Cc1ccc2c(CN3CCC(C)CC3)cc(=O)oc2c1,-1,-3,0,/,/,/,3,-6,-0.6,-0.4
COc1ccc(/C=C2/NC(=O)N(Cc3ccccc3F)C2=O)cc1OC,-2,1,-5,14,7,3.1,-14,-1,-0.1,2.1
O=[N+]([O-])c1ccc2nn(Cc3ccccc3)cc2c1,18,-7,-5,3,-5,5.3,1,-3,0.1,3.9
O=S(=O)(NCC(c1ccco1)N1CCN(c2ccc(F)cc2)CC1)c1ccc(F)cc1 (centres undefined),-1,33,7,/,/,/,0,8,-0.1,-2.3
CSc1cccc(NC(=O)c2cc(S(=O)(=O)N3CCc4ccccc43)cn2C)c1,5,-1,17,7,0,-0.7,15,4,0.6,-2.4
CC(C)Cc1nnc(NS(C)(=O)=O)s1,-5,-2,-6,/,/,/,-6,3,-0.6,2.6

# Exported with values under each structure: part of the list above.
# Results follow in this order: Calb FLC | ALR H2O2 inh | Beta cell apopt | rRNA inh HTS | rRNA inh HTS OD600 | rRNA inh HTS RFP | T cruzi repl | Beta2AR agonist | A1 inh | LANA-H2B inh
CCc1nc(OCCN(C)C)c2oc3ccccc3c2n1
  0 | 11 | 0 | / | / | / | 24 | 4 | -0.5 | 3.0
Cc1ccc(C2(C)NC(=O)N(CC(=O)N3CCc4ccccc43)C2=O)cc1 (centres undefined)
  / | 0 | 3 | 11 | 20 | 10 | / | -1 | -1.0 | -2.7

# The list goes on.
Structure,Calb FLC,ALR H2O2 inh,Beta cell apopt,rRNA inh HTS,rRNA inh HTS OD600,rRNA inh HTS RFP,T cruzi repl,Beta2AR agonist,A1 inh,LANA-H2B inh
O=C(NCCO)c1cc2c([nH]c3ccccc32)c(-c2ccc(F)cc2)n1,10,39,9,-25,-53,1.8,17,15,-0.5,-0.3
Cc1ccccc1-c1nnc(SCC(=O)NC2CCCC2)o1,-30,-7,-5,-5,-8,2.0,-7,-3,0.3,6.8
CCOc1ccc(-c2nnc(SCC(=O)NC3CC3)o2)cc1,/,-5,0,0,4,-0.1,/,-10,-0.1,4.5
C/C(CCc1ccco1)=N\NC(=O)CNc1cccc2ccccc12,15,-5,-5,-1,-10,-0.7,2,15,0.1,2.2
O=C(CNc1ccc(F)cc1)N/N=C/C1CC=CCC1 (centres undefined),12,5,-3,13,7,-0.2,-2,1,-0.6,-3.4
CC(C)Cc1c(O)nc(SCCN2CCOCC2)[nH]c1=O,7,12,-5,/,/,/,-7,-11,0.7,-0.8
C=CCNC(=O)Cn1nc(-c2ccccc2)ccc1=O,?,6,-6,0,-5,-2.6,-12,1,-0.3,1.8
Cc1cc(SCc2cccc([N+](=O)[O-])c2)nc(=O)[nH]1,1,12,/,7,8,6.3,9,0,-1.3,0.8
Cc1nn2c(N3CCN(C(=O)c4ccco4)CC3)cc(C(C)(C)C)nc2c1-c1ccccc1,2,0,-5,/,/,/,41,/,1.3,-3.7
CCOc1ccccc1N(CC(=O)NC(C)(C)C)C(=O)c1ccc(CN2CCOCC2)o1,-2,/,/,/,/,/,-4,7,-1.0,5.1
CCOC(=O)c1ccc(N2C(=O)CC(N3CCC(Nc4ccc(F)cc4)CC3)C2=O)cc1 (centres undefined),16,48,-1,/,/,/,-13,1,0.2,0.2
S=C1NCCOCCOCCOCCOCCNC(=S)NCCOCCOCCOCCOCCN1,1,-3,-5,/,/,/,1,-1,0.3,4.7
O=C(CNC(=S)NC(=O)c1ccc(Br)o1)c1ccccc1,8,/,0,/,/,/,7,-3,0.4,/
COC(=O)c1ccc(NC(=O)CC2C(=O)N(c3ccc(C)cc3)C(=O)N2CC(C)C)cc1 (centres undefined),1,-2,3,/,/,/,-2,-6,0.3,1.3
O=C(CSc1ccc(F)cc1)N1CCC(c2nc3ccccc3s2)CC1,14,0,-12,/,/,/,-3,-6,-1.6,-6.9
CCOc1cc2[nH]c(=O)n(Cc3ccc(C(=O)NCCCN4CCC(C)CC4)cc3)c(=O)c2cc1OCC,-6,1,-2,-2,6,4.2,-1,8,0.2,-3.4
Cc1cc(C)n(CCCNC(=O)C2CC(=O)N(Cc3ccccc3)C2)n1 (centres undefined),12,-2,-5,1,14,-4.3,-8,-2,0.9,0.5
CCC(C(=O)c1ccc(O)cc1)c1ccccc1 (centres undefined),41,7,-4,/,/,/,-2,1,-0.1,-4.2
O=C(c1cc2ccccc2[nH]1)N1CCOCC1,5,/,6,/,/,/,-14,-6,-1.1,/
Cc1ccccc1NC(=O)c1cccc(NC(=O)CCC(=O)O)c1,-7,/,2,23,9,-0.3,-4,1,-0.2,4.7
Cc1cc(NC(=O)CSc2nc(=O)n(CCN(C)C)c3c2CCCC3)no1,-4,8,-5,1,7,1.9,-12,-2,-0.1,1.6
Cc1ccc(NCC(=O)NNC2=NCCC2)c(C)c1,-17,51,1,0,10,-2.8,-14,2,-0.1,3.1
COc1cccc(-n2c(N)c(C#N)c3ccc([N+](=O)[O-])cc3c2=O)c1,-12,-5,-5,/,/,/,9,/,0.5,-5.1
CCOC(=O)C1=C(c2ccccc2)OC(N)=C(C#N)C1c1ccc(Br)s1 (centres undefined),-7,24,-3,/,/,/,-5,-3,-1.3,1.0
Cc1ccc(CCN2CC(C(=O)NCCCN3CCC(C)CC3)CC2=O)cc1 (centres undefined),19,-12,-4,3,14,-3.3,0,0,1.0,9.1
O=C(N/N=C/c1cccc([N+](=O)[O-])c1)c1cc(-c2ccc3c4c(cccc24)CC3)n[nH]1,8,1,5,3,-6,-0.8,14,2,0.2,1.4
O=[N+]([O-])c1cc(-c2cnc3ccccc3n2)ccc1Oc1ccc(Br)cc1,17,-19,-2,/,/,/,38,-7,1.4,1.4
CC(=O)Nc1ccc(S(=O)(=O)NC2CC3CCC2C3)cc1 (centres undefined),-3,-15,-1,10,14,0.4,10,0,-0.2,1.1
Cc1cs/c(=N\N=C\c2ccccc2)n1Cc1ccco1,/,84*,-6,/,/,/,/,-1,0.6,-3.8
O=C(NC1CCN(S(=O)(=O)c2ccccc2)CC1)c1cccc(F)c1,1,/,0,1,13,-0.9,2,-1,0.5,-2.7
O=C(c1ccc2[nH]ccc2c1)N1CCCC(Nc2ccccc2)C1 (centres undefined),-1,99*,/,0,-8,1.0,14,5,/,/
O=C(CSc1cccc[n+]1[O-])Nc1cc(S(=O)(=O)N2CCOCC2)ccc1Cl,1,-10,-5,/,/,/,9,-1,-0.1,2.6
COCC1CCCC1OS(N)(=O)=O (centres undefined),-3,2,/,12,11,22,-4,-1,0.2,-5.4
Nc1ccccc1C(=O)NCc1ccc(Cl)cc1,-4,-16,-12,/,/,/,-13,-4,0.1,3.1
Cc1ccccc1NC(=O)CC(O)(C(F)(F)F)C(F)(F)F,-15,-12,-9,-6,5,-3.0,-18,-1,0.4,-3.6
CC(CC(=O)NNC(=O)c1cccc(Cl)c1)c1ccccc1 (centres undefined),1,0,-1,4,8,-1.7,-6,0,-0.3,3.3
COc1cc2c(cc1OC)CN(CC(=O)Nc1ccc(Cl)cc1Cl)CC2,1,-24,-1,-27,-36,-0.9,1,4,-1.4,2.6

# Full records, quoted from the list.
# Entry for COc1cc2c(cc1OC)CN(CC(=O)Nc1ccc(Cl)cc1Cl)CC2 → Calb FLC = 1; ALR H2O2 inh = -24; Beta cell apopt = -1; rRNA inh HTS = -27; rRNA inh HTS OD600 = -36; rRNA inh HTS RFP = -0.9; T cruzi repl = 1; Beta2AR agonist = 4; A1 inh = -1.4; LANA-H2B inh = 2.6
# Entry for COCC1CCCC1OS(N)(=O)=O (centres undefined) → Calb FLC = -3; ALR H2O2 inh = 2; Beta cell apopt = /; rRNA inh HTS = 12; rRNA inh HTS OD600 = 11; rRNA inh HTS RFP = 22; T cruzi repl = -4; Beta2AR agonist = -1; A1 inh = 0.2; LANA-H2B inh = -5.4
# Entry for O=[N+]([O-])c1cc(-c2cnc3ccccc3n2)ccc1Oc1ccc(Br)cc1 → Calb FLC = 17; ALR H2O2 inh = -19; Beta cell apopt = -2; rRNA inh HTS = /; rRNA inh HTS OD600 = /; rRNA inh HTS RFP = /; T cruzi repl = 38; Beta2AR agonist = -7; A1 inh = 1.4; LANA-H2B inh = 1.4

# Source: PubChem (several laboratories)
